PrP 5UTR inh = inhibition of PrP 5' UTR reporter expression; cell-based PrP 5' UTR mRNA reporter, plate reader; inhibition, % (concentration not given with the values); 340,000 compounds, 0.35% hits;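 active = every replicate at 50% or more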;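 also: 0 = median of the neutral control wells; tested in H4 reporter cells; numbers are from one replicate; inactives centre near -14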
ugtP null kill = growth inhibition of ugtP-null S. aureus, primary screen, RN4220 ugtP deletion, OD600; 16 h; some inactives read as strong as hits; growth inhibition, % (concentration not given with the values); 330,000 compounds, 0.54% hits;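 active = z-score under -3 and OD600 up to 0.15 on both plates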;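 also: plate controls were untreated wells for no effect and antibiotic for full effect; wells of about 80 µL received 100 nL stock; the first replicate is given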
Sa RN4220 lethal = growth inhibition of S. aureus RN4220, primary screen, OD600 | inhibition, % (no concentration beside the values) | AID 1259311, 2017 | 330,000 compounds, 0.33% hits | 16 h;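 active = z-score of -3 or lower and OD600 up to 0.18 on both plates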;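 also: plate controls were untreated cells for no effect and reference antibiotic for full effect; stock transfer was 100 nL into about 80 µL; one replicate is shown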
Bead autofluor = compound fluorescence in toxin protease inhibitor counterscreen. compound autofluorescence counterscreen, microsphere flow cytometry; hits give high values. fluorescence intensity (concentration not given with the values). 360,000 compounds, 3.1% hits;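 active = at least 3 SD above the mean of all compounds, about 16000 in these data; inconclusive = too few beads counted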;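 also: 100 nL of 1 mM stock went into each well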
Mtb hypoxia inh = PubChem AID 1159583. M. tuberculosis hypoxia-regulated fluorescent reporter, fluorescence. fluorescence inhibition, % (test concentration not listed). 300,000 compounds, 0.1% hits;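 active = 35 to 45% if threefold the growth effect, above 45% if 1.5-fold the growth effect; inactive = the rest, general growth blockers included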;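 also: wells of about 50 µL received 100 nL stock; 0% = vehicle wells and 100% = reference inhibitor wells; whole bacteria with a GFP reporter of the hypoxia response; strong numbers were not always called active; many hits fall short of the cut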
BJeLR lethal = MLPCN primary cell-based screen for lethality selective to Ras in HRASV12 cells | BJeLR (HRASV12) viability, CellTiter-Glo ATP luminescence, 48 h; reference of the scale not given here | AID 1554, 2009 | 300,000 compounds, 0.17% hits | inhibition, % (no concentration beside the values);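 active = replicate mean above 50%; inconclusive = above 50% but judged a plate artefact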;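 also: 50 nL library stock added to about 25 µL; numbers are from one replicate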
Mtb hypoxia inh growth = recorded beside Mtb hypoxia inh, whose call it bears; growth inhibition, %; measured here: M. tuberculosis growth (absorbance);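 0% = vehicle and 100% = reference antibiotic; read after six days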
Starred values were filed as active, the others as inactive; ? = inconclusive; · = no result given.

SMILES,PrP 5UTR inh,ugtP null kill,Sa RN4220 lethal,Bead autofluor,Mtb hypoxia inh,Mtb hypoxia inh growth,BJeLR lethal
Cc1nccn1CCCNCc1c(C(=O)N2CCCCCCC2)nc2ccc(Cl)cn12,84*,0,3.2,6395,-1,14,2
CCOc1cc(/C=C\c2nc(O)c([N+](=O)[O-])c(=O)[nH]2)ccc1OC(C)C,-9,-3,1.1,3748,3,0,-4
COc1ccc(-c2c(C#Cc3ccsc3)c3cc(-c4ccc5c(c4)OCCO5)ccc3n2C)cc1,-14,1,9.9,3611,9,2,·
Cc1ccc(S(=O)(=O)N2CCC(=O)N(CCO)CC2)cc1,-9,0,2.5,3572,7,2,2
COc1ccc(-c2nc3ccc(N4CCN(C)CC4)cc3c(=O)[nH]2)cc1,-12,12,5.7,4206,1,-8,3
COc1ccc(C(=O)Nn2c(CC(C)C)nc3cc(OC)c(OC)cc3c2=O)c(OC)c1,-18,6,4.1,4221,6,4,-10
CCOC(=O)c1c(C)[nH]c(C)c1S(=O)(=O)N(C)CC(=O)Nc1ccccc1C,7,9,6.7,4589,-2,-3,1
CNC(=O)COC(=O)c1cc(F)c(F)cc1Cl,-4,1,-1.0,4975,·,·,-2
COCCN(C(=S)Nc1c(C)cccc1C)C(C)c1cccnc1 (configuration not stated),-19,2,3.4,2602,14,12,2
CCOc1ccccc1/C=N/Nc1nc2c(N)ncnc2n1[C@H]1O[C@@H](CO)[C@H](O)[C@@H]1O,-10,·,·,4583,·,·,-1
CCOC(=O)C1CCN(C(=O)C(C)Oc2ccc(Br)cc2)CC1 (configuration not stated),-6,-2,3.5,4848,4,11,2
Cc1sc(NC(=O)C2=COCCO2)nc1-c1ccc(Br)cc1,-65,2,-5.2,6791,5,0,-7
N#CCSc1nnc(-c2cnccn2)n1Cc1ccccc1,-15,3,1.9,9987,11,7,-1
CCCC[C@H]1COCCS(=O)(=O)N1Cc1cccc(Cl)c1,-7,·,·,3489,·,·,-6
Cc1ccc(C(CC(=O)c2ccco2)SCCO)cc1 (configuration not stated),-40,9,9.6,3678,·,·,1
COc1ccc(C2NC(=S)NC(C)=C2C(=O)Nc2ccccn2)cc1OC (configuration not stated),0,-2,0.1,3186,-9,0,2
COC(=O)c1cc(COc2ccc3oc(C)c(C(=O)OC(C)C)c3c2)c(C)o1,-11,96*,1.8,2511,·,·,-7
CS(=O)(=O)c1ccc(Cl)c(NC(=O)C2CC(=O)N(Cc3ccco3)C2)c1 (configuration not stated),7,7,1.1,·,-6,0,-6
CCOCCCNC(=O)C1c2ccccc2Oc2ccccc21,-17,9,1.7,3499,6,15,-13
COC(=O)C1=C(C)Nc2nc3ccccc3n2C1c1cc(OC)c(OC)c(OC)c1 (configuration not stated),·,-4,2.0,3764,6,2,1
Nc1c(/C=C2\C=Nc3ccccc32)c(=O)nc2sc(CC(=O)N3CCOCC3)nn12,-14,2,1.6,5456,-3,5,-4
Cc1ccc(S(=O)(=O)NCCOC(=O)Nc2sc(=S)n(C)c2C)cc1,-17,-2,2.5,11174,14,17,2
CSc1nc(N)nc2c1ncn2CC(=O)NCCCc1ccccc1,-2,9,4.5,2996,-6,4,·
CCSc1nc(-c2cccs2)nc2ccccc12,-12,12,-1.1,3183,1,1,17
Cc1ccc(S(=O)(=O)N(C)Cc2ccc(C(=O)NN=C3C4CC5CC(C4)CC3C5)cc2)cc1,-15,0,7.8,2348,6,-2,1
CCC(CC)C(=O)Nc1cc(C)c2c(=O)oc3ccccc3c2n1,-16,14,3.3,5185,11,16,0
Cc1ccc(S(=O)(=O)N(C)C)cc1NC(=O)c1ccc(-n2cncn2)c([N+](=O)[O-])c1,-16,0,1.8,4081,12,5,·
CCc1cc(=O)oc2c(CNCc3c(F)cccc3Cl)c(O)ccc12,16,13,5.8,3229,7,7,4
COc1ccc(NC(=O)CN(C)S(=O)(=O)c2cccc3nsnc23)cc1,-33,17,3.7,4010,-3,2,0
O=[N+]([O-])c1ccc(C(c2ccc([N+](=O)[O-])cc2)c2ccc([N+](=O)[O-])cc2)cc1,-23,-13,-3.8,3222,16,11,·
Cc1ccc(OCC(=O)NNC(=O)CCc2ccccc2)c(Br)c1,-11,11,1.6,6275,-3,6,4
COCCN1CCc2c(C)nc3c(-c4ccc(OC)c(OC)c4)cnn3c21,-31,-8,2.1,9041,2,9,2
CC(=O)c1ccc(OCc2cc(C(=O)N(C)CCN3CCOCC3)no2)cc1,-16,2,0.1,5578,1,12,0
CCOC(=O)CCC(=O)Nc1ccc(S(=O)(=O)N2CCCCC2)cc1,28,5,5.8,4101,-3,10,-9
Cc1cc[n+](CC(=O)N2CCCc3ccccc32)cc1,-22,1,7.2,2566,3,-2,-2
CCCCN(C(=O)CCC(=O)Nc1cc(C)on1)C(C(=O)NC(C)(C)C)c1cccc(OC)c1OC (configuration not stated),-6,12,3.4,2369,·,·,5
O=C(CSc1nc2ccccc2c(=O)n1-c1ccc(F)cc1F)Nc1ccc2c(c1)CCC2,-17,11,-0.5,2576,2,-2,-7
O=C(c1ccc2c(=O)n3c(nc2c1)CCC3)N1CCN(S(=O)(=O)c2ccccc2Br)CC1,·,4,6.5,6495,13,4,·
O=C(NN=Cc1ccncc1)C1C2CCCCCCC21 (configuration not stated),·,0,5.8,·,-7,-10,·
Cc1noc(C)c1NC(=O)Nc1cccc2c1OC(CN(C)S(=O)(=O)c1c(C)noc1C)C(C)CN(C(C)CO)C2=O (configuration not stated),·,0,-0.3,·,1,13,·
O=C(Cc1ccc(Cl)cc1)NCC(=O)N1CCCCCC1,-6,10,-1.7,3164,-1,2,15
COc1ccc(-c2cn(-c3ccc(OC)cc3)c(=S)[nH]2)cc1,-11,44,7.6,11242,6,8,-16
Cc1ccc(S(=O)(=O)N(CC(=O)Nc2cccnc2)c2cccc(Br)c2)cc1,-17,-8,10,?,4,-9,10
OCCN1CCN(c2ncnc3c2c(-c2ccccc2)cn3-c2ccc(Br)cc2)CC1,-5,-7,-6.3,3632,3,2,-1
CC(C)C[C@@]12C(=O)N(c3cccc(F)c3)C(=O)N1C(c1ccc(Br)cc1)C1C(=O)N(C(C)(C)C)C(=O)C12 (some centres not stated),·,0,1.4,·,-11,-10,·
O=C(OCc1nc2ccccc2[n+]([O-])c1C(=O)c1ccccc1)c1cccs1,-37,3,10,2463,5,6,0
CC(C)(C)C(=O)Cn1c(NCCO)nc2ccccc21,6,-2,3.4,2391,·,·,2
COc1cc(C2SCC(=O)N2CCc2ccc(OC)c(OC)c2)ccc1O (configuration not stated),-21,-1,-1.3,3303,0,13,0
O=C(c1ccccc1)c1ccc(OCCOCCN2CCN(Cc3ccccc3)CC2)cc1,0,5,13,4547,16,24,-3
CS(=O)(=O)Nc1ccc(Oc2ncccn2)cc1,-27,10,0.5,6897,15,2,3
Oc1ccc(/C=N/NC2=NCCCCC2)c(O)c1,-47,·,·,2931,·,·,5
CCO[C@@H]1OC(C(=O)N2CCN(Cc3ccc4c(c3)OCO4)CC2)=C[C@H](c2ccc(C(F)(F)F)cc2)[C@H]1CCCO,-20,-26,-12,3627,-1,-4,-14
CN(C)/C=N/c1sccc1C(N)=O,-2,·,·,3086,·,·,1
COc1ccc(-c2nn(C)c(=O)c3ccccc23)cc1CNS(C)(=O)=O,-4,4,4.0,3398,3,7,9
COc1cccc(/C=N/NC(N)=S)c1OCc1ccccc1Cl,15,·,·,2038,·,·,-15
Cc1ccc(C)c(NC(=O)CSc2nnc(-c3ccco3)o2)c1,-23,-6,-18,3391,0,7,-4
COc1cc(/C=N/OCC(=O)Nc2cc(C)cc(C)c2)ccc1OCc1ccc(Cl)cc1,-67,·,·,2026,·,·,-23
CNC(=O)CN1C(=O)c2cccc3cccc1c23,-23,-5,-14,2794,8,9,7
CCN(CC)C(=O)c1ccc(-c2nnc(Nc3ccc(C(=O)N(C)C)cc3)c3ccccc23)cc1,-4,·,·,4039,·,·,-3
O=C1C=Cc2cccc3ccc(O)c1c23,9,9,1.4,3437,4,6,·

Record cards, from the list above. Screens in order: PrP 5UTR inh | ugtP null kill | Sa RN4220 lethal | Bead autofluor | Mtb hypoxia inh | Mtb hypoxia inh growth | BJeLR lethal
COc1ccc(-c2c(C#Cc3ccsc3)c3cc(-c4ccc5c(c4)OCCO5)ccc3n2C)cc1 reads -14 | 1 | 9.9 | 3611 | 9 | 2 | ·
CCCC[C@H]1COCCS(=O)(=O)N1Cc1cccc(Cl)c1 reads -7 | · | · | 3489 | · | · | -6

Next records:
SMILES,PrP 5UTR inh,ugtP null kill,Sa RN4220 lethal,Bead autofluor,Mtb hypoxia inh,Mtb hypoxia inh growth,BJeLR lethal
COCCCNC(=O)Cc1c(C)c2c(cc(C)c3c(C(C)(C)C)coc32)oc1=O,12,5,-0.5,3863,0,7,66*
O=C(CSc1nnnn1-c1ccccc1)N1N=CCC1c1ccccc1 (configuration not stated),1,1,-1.1,3044,4,3,5
COC(=O)C1=C(C)N(C)C(=O)NC1c1ccc(C)cc1 (configuration not stated),-23,3,6.4,12600,5,-3,-1
COc1ccc(CN2C(=O)c3cccnc3C2Nc2ccc(OC)c(Cl)c2)cc1 (configuration not stated),-24,4,5.2,22056*,0,-4,2
Nc1nnn(CC(=O)NN=C/C=C/c2ccccc2)n1,·,5,1.8,·,5,6,·
CCCOc1ccc2c(=O)c(N3C(=O)c4ccccc4C3=O)c(C)oc2c1,-28,-9,-2.7,20166*,-6,6,6
COc1ccc(S(=O)(=O)NC2CC2)cc1C(=O)N1CCOCC1,-14,0,1.5,3385,-2,-6,0
COc1cc(Br)c(CC(=O)O)cc1OC,·,6,3.6,·,7,5,-4
C=Cc1ccc(Cn2c(=O)n(CCCOC)c(=O)c3sccc32)cc1,-15,2,-0.2,3797,10,11,2
O=C(CCc1nnc(C2CCCCC2)o1)N1CCC(Oc2cccnc2)CC1,-11,-4,4.5,2476,6,3,-4
COCCNC(=O)C1c2ccccc2C(=O)N(CCOC)C1c1ccc(F)cc1 (configuration not stated),-23,-2,1.7,8846,0,-5,-10
O=C(O)c1c2c(nc3ccc(S(=O)(=O)N4CCC(C(=O)NCc5ccccc5Cl)CC4)cc13)CCCC2,-16,3,0.2,5026,-3,-1,-14
COc1ccc(N2CCN(CC(=O)c3ccc(O)cc3O)CC2)cc1,-4,·,·,5133,·,·,0
O=c1[nH]c2ccccc2nc1/C=C(\O)C1CC1,-12,7,5.8,9879,15,2,13
COc1ccc(S(=O)(=O)NCc2cccnc2)cc1NC(=O)c1ccc(C)cc1,-2,8,0.4,·,-1,-2,9
Cc1nc2ccc(NC(=O)C3COc4ccccc4O3)cc2s1 (configuration not stated),-56,-1,6.0,3302,16,12,0
COc1cc(OC)cc(C(=O)N2c3ccc(F)cc3CCC2C)c1 (configuration not stated),-7,-3,4.7,5140,·,·,-4
C[C@@H](CN=[N+]=[N-])CN1CC[C@H](C(C)(C)C)CCC1=O,-15,·,·,4416,·,·,-3
O=c1cc(CSc2ccccn2)nc(N2CCN(c3ccccc3)CC2)[nH]1,6,7,3.3,4375,6,-4,3
CCCC(C(=O)NCCC(C)C)N(Cc1ccc(F)cc1)C(=O)c1snc(C(N)=O)c1N (configuration not stated),-5,12,0.8,3194,-3,-12,-17
CN1CCN(C(=O)/C(C#N)=C/c2ccc(F)cc2)CC1,5,4,7.5,3357,15,4,2
COc1cc2c(cc1OC)/C(=C/C(=O)c1ccc(OC)c([N+](=O)[O-])c1)NCC2,-1,3,-0.9,4099,-5,-3,-3
Cc1ccc(C)c(N2N=C(C(=O)Nc3cccnc3)CCC2=O)c1,-6,6,2.2,6165,10,6,·
O=C1c2ccccc2S(=O)(=O)N1CCCN1C(=O)c2ccccc2S1(=O)=O,-24,7,8.2,4067,6,3,·
COc1ccc(CNC(=O)Cc2nn(C)c(=O)c3ccccc23)cc1,41,-2,-2.5,2168,·,·,·
Cc1sc2nc(CSc3ccc([N+](=O)[O-])cc3)[nH]c(=O)c2c1C,·,3,1.7,·,6,-1,14
